# Assay outcomes: PubChem BioAssay, National Center for Advancing Translational Sciences (NCATS)
# Resorufin autofl – compounds fluorescent in resorufin spectral region; actives 0.04% (n = 59,000); max dye-equivalent concentration, M; Compound fluorescence, resorufin region 547/598 nm, buffer; active compounds read high; active = above 10 nM dye equivalent; inconclusive = 1 to 10 nM; inactive = 1 nM or less; a few of its hits are not listed in these tables; also: highest value over a series up to 38 µM
#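 Tris 100 mM pH 8.0; compound added, 15 min RT; CCD imager read, ex 547 nm/em 598 nm; signal normalized to resorufin standard curve (six concentrations per plate) as dye-equivalent concentration.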
# A488 autofl – compound autofluorescence in A488 spectral region; actives 0.1% (n = 59,000); compound autofluorescence, A488 spectral region, dye equivalency; active compounds read high; max dye equivalency, M; active = above 10 nM dye equivalent; inconclusive = 1 to 10 nM; inactive = 1 nM or less; about half of its hits are not listed in these tables;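 also: highest value over a series up to 38 µM; compound alone in buffer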
#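 Readout is A488 dye-equivalent concentration, calibrated by a per-plate six-point Alexa 488 series. Compounds in 100 mM Tris buffer pH 8.0 were incubated 15 min at room temperature. Plates were imaged using 480 nm excitation/540 nm emission filters.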
# AID923 – qHTS Assay for Allosteric/Competitive Inhibitors of Caspase-1: Spectroscopic Profiling in AFC Spectral Region | compound fluorescence, AFC spectral region (405/520 nm); almost no hit is shown here | Potency, µM (top dose mostly 57.5 µM), for inactives: at the highest dose fluorescence increase, hits mostly activators | AID 923, 2007 | actives 1.1% (n = 75,000); active = well fitted activation curve with a large enough effect; inconclusive = small, poorly fitted or top-dose-only effect;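 also: potency is read from the fitted curve at half-maximal effect; 0% is about no effect; scaled to a free AFC standard on each plate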
#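 Titrations up to 57 uM read every 20 sec for 3 min (405/520 nm) with 50 nM caspase 1 and 5 uM Ac-WEHD-AFC, pH 7.5 HEPES buffer. Fluorescence-vs-time intercept gave baseline, scaled against on-plate AFC standard.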
# A647 autofl – compound fluoresces in the A647 spectral region; max dye-equivalent concentration, M; 59,000 tested, under 10 active; Compound fluorescence, A647 channel (570/671 nm), Tris buffer; active means above 1 µM dye equivalent; inconclusive means 0.1 to 1 µM; inactive means 0.1 µM or less;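 also: values scaled relative to a standard on each plate; highest value over a series up to 38 µM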
#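 Fluorescence read (570 nm ex, 671 nm em) after 15 min RT incubation of compounds in 100 mM Tris buffer, pH 8.0; values expressed as dye-equivalent concentration against a six-point A647 standard series on each plate.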
# TSHR agonist – agonists of human thyroid stimulating hormone receptor; P16473; HEK293-CNG-TSHR cells (CNG channel as cAMP sensor), membrane potential dye, cAMP; Potency, µM (series often up to 57.1 µM), for the others: at the top dose activation, hits mostly activators; actives 0.48% (n = 73,000); active = well fitted activation curve of enough size with the parental cells flat; inconclusive = any curve in the parental cells; inactive = parental cells flat and receptor cells flat or falling; also: potency is read from the fitted curve at half-maximal effect; % of control where 0% means no effect; weak receptor curves with flat parental cells got no call and are not listed
# Target sequence (P16473 whole entry, looked up): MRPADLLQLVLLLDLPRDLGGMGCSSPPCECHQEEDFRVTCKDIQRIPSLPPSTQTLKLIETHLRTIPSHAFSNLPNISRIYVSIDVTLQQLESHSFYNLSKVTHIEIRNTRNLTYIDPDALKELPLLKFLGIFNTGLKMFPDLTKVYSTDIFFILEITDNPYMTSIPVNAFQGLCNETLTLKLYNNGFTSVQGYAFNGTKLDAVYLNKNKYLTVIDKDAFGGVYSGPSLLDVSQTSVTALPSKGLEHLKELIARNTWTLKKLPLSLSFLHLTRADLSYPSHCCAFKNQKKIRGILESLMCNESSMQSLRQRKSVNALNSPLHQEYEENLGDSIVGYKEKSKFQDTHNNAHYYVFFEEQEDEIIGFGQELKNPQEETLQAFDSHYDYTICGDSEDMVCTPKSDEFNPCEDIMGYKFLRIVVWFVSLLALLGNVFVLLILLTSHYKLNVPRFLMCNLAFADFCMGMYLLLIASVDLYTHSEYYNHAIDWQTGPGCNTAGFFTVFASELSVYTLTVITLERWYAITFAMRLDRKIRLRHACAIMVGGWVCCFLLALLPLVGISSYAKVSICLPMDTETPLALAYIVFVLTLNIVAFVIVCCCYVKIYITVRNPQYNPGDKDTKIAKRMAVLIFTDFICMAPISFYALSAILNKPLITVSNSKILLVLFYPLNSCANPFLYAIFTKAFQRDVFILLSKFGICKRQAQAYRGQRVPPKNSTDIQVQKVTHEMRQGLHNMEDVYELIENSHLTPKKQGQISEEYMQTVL
#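 HEK 293 cells stably expressing TSHR and a modified CNG channel, with CNG-only parental cells as counterscreen, were preloaded 60 min at room temperature with membrane potential dye containing 100 uM RO 20-1724. Compound exposure was 30 min, and depolarization was read as fluorescence at 590 nm.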
# * = called active by the depositor; i = inactive; ? = inconclusive; / = not tested or not shown; [ ] = dose if it differs, or a comment. Only part of the results is shown (hit frequency here may not be typical).
no.	Molecule	AID923	TSHR agonist	A647 autofl	A488 autofl	Resorufin autofl
1	O=S1(=O)C[C@@H](N2CCOCC2)[C@H](N2CCOCC2)C1	/	/	1.1e-08	i	i
2	Cc1ccccc1-c1nc(NCc2cccs2)c2ccccc2n1	1.7%	?	1e-09	i	i
3	CCOC(=O)c1[nH]c(C)c(C(=O)NCc2cccnc2)c1C	2.3%	-1%	/	/	/
4	Cc1cc(Oc2ccc(=O)n(C)n2)nc(Oc2ccc(=O)[nH]n2)n1	1.2%	1%	1.5e-08	i	i
5	O=C1C=C(NCC2CCCO2)CC(c2ccccc2)C1 (stereo not drawn)	-1.3%	-6%	/	/	/
6	CC(C)COP(=O)(c1ccc(N(C)C)cc1)C(O)c1ccncc1 (stereo not drawn)	1.4%	13%	1.8e-08	i	i
7	C=CCn1c(SCC(=O)Nc2cc(C)c(Cl)cc2OC)nnc1-c1ccco1	1.8%	?	3.6e-09	i	i
8	C[C@H]1[C@@H](O)[C@@H](C)\C=C/C=C\C=C/C=C\C=C/C=C\C=C/[C@@H](O[C@H]2O[C@@H](C)[C@@H](O)[C@@H](N)[C@@H]2O)C[C@@H]2O[C@](O)(C[C@@H](O)C[C@@H](O)[C@@H](O)CC[C@@H](O)C[C@@H](O)CC(=O)O[C@H]1C)C[C@@H](O)[C@H]2C(=O)O (stereo in doubt)	3.1%[25.7 µM]	-2%[25.6 µM]	2.7e-08	i	i
9	C/C(N)=C(\C#N)C(=O)NCCc1ccccn1	-1.3%	0%	3.9e-08	i	i
10	N#CCCN(CCC#N)C(=O)COc1ccc(Cl)cc1Cl	0.2%	-14%	1.7e-08	i	i
11	CC1CCCCC1NS(=O)(=O)c1ccc(S(=O)(=O)N2CCN(CCC#N)CC2)cc1 (stereo not drawn)	2.5%	0%	/	/	/
12	O=C(NCCCN1CCCC1=O)NC12CC3CC(CC(C3)C1)C2	-2.0%	16%	2.4e-08	i	i
13	Cc1cccc(-n2nnc(C(=O)Nc3ccc(F)cc3)c2N)c1	0.9%	3%	2.8e-08	i	i
14	COc1ccc(C(=O)CSc2nnc(CNC(=O)c3ccc(OC)c(OC)c3)n2C)cc1	0.8%	-5%	1.5e-08	i	i
15	CCOC(=O)CNC(=O)CSc1ncnc2c1cnn2-c1ccccc1	-0.2%	-2%	1e-09	i	i
16	CC(=O)Nc1cc(NC(C)=O)cc(C(=O)OCC(=O)N2CC(C)OC(C)C2)c1 (stereo not drawn)	0.7%	4%	4.6e-09	i	i
17	COc1ccccc1N1CCN(C(=O)c2cc(-c3ccc(Cl)c(Cl)c3)on2)CC1	-1.1%	6%	1e-09	i	i
18	Oc1[nH]c2ccccc2c1C=Nc1ccc2c(c1)OCCO2	2.9%	-16%	8.8e-09	i	i
19	COc1ccc(-n2c(=O)c(CCc3ccccc3)nc3cnc(N4CCNCC4)nc32)cc1	15%	-9%	1.3e-08	i	i
20	Cc1cc(C(=O)CSc2nnc(-c3cccnc3)n2-c2ccccc2F)c(C)n1C	-4.1%	1%	2e-08	i	i
21	CCCS(=O)(=O)N1CCC(C(=O)NCCN2CCCC2)CC1	0.9%	4%	2.5e-08	i	i
22	COc1ccc(N2CCCn3c2nc2c3c(=O)n(CCCc3ccccc3)c(=O)n2C)cc1	0.1%	19%	2.2e-08	i	i
23	C#CCN1C(=O)C2C(C(=O)NC)C3C=CC2(O3)C1C(=O)NCc1ccc(OC)cc1 (stereo not drawn)	0.4%	-2%	4.3e-08	i	i
24	CCN(CC)S(=O)(=O)c1ccc2nc(NC(=O)c3cccs3)sc2c1	9.5%	?	1.3e-09	i	i
25	O=C(NCc1cccs1)C1CCCN(c2ncccn2)C1 (stereo not drawn)	0.7%	?	3.4e-09	i	i
26	CCCCCc1nc2c(=O)[nH]c3ccccc3c2o1	0.0%	10%	4.1e-09	i	i
27	COc1ccc(OC)c(CN2CCCC(C(=O)N3CCCCC3)C2)c1 (stereo not drawn)	-0.6%	?	4e-09	i	i
28	COC(=O)CN1C(=O)C(O)(CC(=O)c2ccc(C)o2)c2ccccc21 (stereo not drawn)	2.3%	4%	1.4e-08	i	i
29	COc1cccc(C(=O)Nc2c3c(nn2-c2cccc(C)c2C)CS(=O)(=O)C3)c1OC	-0.7%	23%	1e-09	i	i
30	C/C=C/OC(=O)NC(c1ccccc1)[C@]1(C(C)=O)CCOC1=O (stereo partly drawn)	-3.6%[11.5 µM]	?	/	/	/

# A portion from further up, as a working copy:
no.	Molecule	AID923	TSHR agonist	A647 autofl	A488 autofl	Resorufin autofl
20	Cc1cc(C(=O)CSc2nnc(-c3cccnc3)n2-c2ccccc2F)c(C)n1C	-4.1%	1%	2e-08	i	i
21	CCCS(=O)(=O)N1CCC(C(=O)NCCN2CCCC2)CC1	0.9%	4%	2.5e-08	i	i
22	COc1ccc(N2CCCn3c2nc2c3c(=O)n(CCCc3ccccc3)c(=O)n2C)cc1	0.1%	19%	2.2e-08	i	i
23	C#CCN1C(=O)C2C(C(=O)NC)C3C=CC2(O3)C1C(=O)NCc1ccc(OC)cc1 (stereo not drawn)	0.4%	-2%	4.3e-08	i	i
24	CCN(CC)S(=O)(=O)c1ccc2nc(NC(=O)c3cccs3)sc2c1	9.5%	?	1.3e-09	i	i

# The list goes on:
no.	Molecule	AID923	TSHR agonist	A647 autofl	A488 autofl	Resorufin autofl
31	CC(=O)Nc1ccc(NCC(O)COc2ccccc2)cc1 (stereo not drawn)	/	/	1e-09	i	i
32	CCCn1c(-c2ccc(F)cc2)nc2c(N3CCC(N(C)C)C3)nc(C)nc21 (stereo not drawn)	-1.5%	?	/	/	/
33	CC(C(=O)Nc1ccc(C(=O)O)cc1)N1C(=O)c2ccccc2C1=O (stereo not drawn)	0.3%	-2%	1e-09	i	i
34	COCc1cc(=O)[nH]c(/N=C(\N)Nc2ccc(C)cc2)n1	20%	?	2.9e-08	i	i
35	Cc1ccc(N(C(C)C(=O)Nc2ccc(S(=O)(=O)N3CCOCC3)cc2)S(C)(=O)=O)cc1C (stereo not drawn)	-1.5%	-15%	4.3e-08	i	i
36	COc1ccc(NC(=O)c2oc3ccccc3c2NC(=O)C(C)(C)C)cc1	0.8%	?	2.7e-08	i	i
37	O=C(Oc1ccccc1)c1ccc2nccnc2c1	-0.9%	-2%[11.4 µM]	4.5e-09	i	i
38	COc1cc(-c2nnn(CC#N)n2)ccc1OCc1ccccc1	0.6%	?	5.8e-08	i	i
39	COC(=O)[C@H]1C[C@@H]1[C@H](NS(=O)(=O)c1ccc(-c2ccccc2)cc1)c1ccccc1	-2.4%	?	/	/	/
40	O=C(CCC(=O)c1cccs1)OCc1nnc(-c2ccccc2)o1	-0.8%	9%	3.6e-08	i	i
41	CCn1c(CSc2nnc(C)n2-c2ccccc2)nc2cc(S(=O)(=O)N(C)C)ccc21	-0.9%	2%	3.4e-08	i	i
42	O=S(=O)(c1cnc[nH]1)N1CCCCCC1	1.2%	10%	1.6e-09	i	i
43	CCOC(=O)C1CCCN(C(=O)c2cnn3c(C(F)(F)F)cc(-c4ccccc4)nc23)C1 (stereo not drawn)	7.8%	?	1.3e-09	i	i
44	COC(=O)c1ccc(-c2nc3ccc(C)cc3o2)cc1	0.3%	8%	6.5e-08	i	i
45	Cc1[nH]n(C(N)=S)c(=O)c1C(c1ccccc1)C(C#N)C#N (stereo not drawn)	1.1%	-6%	7.5e-09	i	i
46	CCS(=O)(=O)NC(C)C(c1cccs1)N1CCN(C)CC1 (stereo not drawn)	0.3%	4%	1e-09	i	i
47	Cc1sc2nc(C3CC3)nc(SCC(=O)NCc3ccco3)c2c1C	2.9%	27%	1.4e-08	i	i
48	O=C(NCC1CCCCC1)c1ccco1	-0.3%	-1%	1e-09	i	i
49	C=CCn1c(N)c(C(=O)NC2CCCCC2)sc1=S	-1.5%	-14%	3.2e-09	i	i
50	O=S(=O)(NCC1CCCO1)c1ccc(Cl)c(C(F)(F)F)c1 (stereo not drawn)	-2.0%	0%	1e-09	i	i
51	Cc1ccc2c(c1)N(CCCC(=O)NCCC1=CCCCC1)C(=O)CO2	-2.2%	?	2.5e-08	i	i
52	Cc1nnc2sc(-c3ccncc3)nn12	2.6%	/	2.1e-08	i	i
53	CC(C)Sc1nnc2n(CCc3ccccc3)c(=O)c3c4c(sc3n12)COC(C)(C)C4	/	/	1e-09	i	i
54	COC(=O)CSC1=NS(=O)(=O)c2ccccc21	1.8%	-14%	/	/	/
55	CCCn1c(SCC(=O)NCc2cccs2)nc2c1c(=O)n(C)c(=O)n2C	0.8%	-3%	2e-09	i	i
56	CCC(=O)N1CCc2cc(S(=O)(=O)NCCN3CCC(C)CC3)ccc21	0.5%	5%[11.4 µM]	1.1e-08	i	i
57	COCC(=O)Nc1ccc(-c2cn3cccnc3n2)cc1	8.8%	22%	3.6e-08	i	i
58	COc1ccc(Cn2nnnc2C(c2cc3ccc(OC)cc3[nH]c2=O)N2CCCCCC2)cc1 (stereo not drawn)	2.1%	?	1.6e-08	i	i
59	O=C(CCCC(=O)N(CC(=O)NC1CCCC1)Cc1ccccc1)Nc1ccccn1	-1.7%	0%	2.8e-08	i	i
60	CC(=O)NC(CCS(C)(=O)=O)C(=O)Nc1nccs1 (stereo not drawn)	0.4%	-5%	2.2e-08	i	i
61	CCCCn1nnc(NC(=O)c2cc3ccccc3o2)n1	-0.7%	5%	3.6e-08	i	i
62	CCOc1cccc(-c2nnc3sc(COc4ccc(C)cc4)nn23)c1	0.8%	?	2.2e-08	i	i
63	CCOC(=O)NC(Nc1sc2c(c1C(=O)OC)CCN(C)C2)(C(F)(F)F)C(F)(F)F	/	/	2.7e-08	i	i
64	CCS(=O)(=O)N1CCC(C(=O)NC2CCCCCCC2)CC1	-0.5%	5%[11.4 µM]	3.2e-08	i	i
65	Cn1c(=O)oc2cc(S(=O)(=O)N3CCCC(C(=O)NCc4cccs4)C3)ccc21 (stereo not drawn)	-1.2%	1%	/	/	/
66	Cc1ccc(Nc2nc(N)nc(CSc3nnc(-c4ccncc4)o3)n2)cc1	-0.8%	-3%	5.9e-09	i	i
67	COc1ccccc1OCC(O)CN1C(=O)NC(C)(C)C1=O (stereo not drawn)	-0.5%	-5%	/	/	/
68	CCOC(=O)/C=C1\NC(=O)CS1	-1.1%	1%	1e-09	i	i
69	CNC1=C(Cl)C(=O)c2ccncc2C1=O	-8.1%	2%	/	/	/
70	COc1cc2c(cc1OC)CN(C(=O)CSc1nc3[nH]ncc3c(=O)n1-c1ccccc1)CC2	-0.7%	9%	/	/	/
71	COc1cccc(CN2CCN(c3ncccn3)CC2)c1	0.4%	6%[11.4 µM]	/	/	/
72	CCCC(=O)Nc1ccc(Cl)c(NC(=O)c2ccco2)c1	-0.5%	1%	1e-09	i	i
73	NC(=O)C1CCN(C(=O)c2cc3ccccn3n2)CC1	3.9%	5%	/	/	/
74	COc1ccc2[nH]c(C)c(C(=O)CN3CCN(C(=O)c4ccco4)CC3)c2c1	/	/	1.7e-09	i	i
75	CN(C)c1ccc(-c2ccc3ncnc(NCc4ccccc4)c3c2)cc1	11%	?	4.3e-08	i	i
76	COc1cccc(CSc2nnc(-c3ccc(F)cc3)o2)c1	0.6%	?	4.4e-08	i	i
77	Cc1ccc(-n2ncc3c(=O)n(CC(=O)Nc4cccc(Cl)c4)cnc32)cc1C	-0.4%	-50%[inhibitor]	1e-09	i	i
78	Cc1nn(-c2ccccc2)c(C)c1C(=O)OCC(=O)c1c(N)n(CC(C)C)c(=O)n(C)c1=O	1.4%	?	1.7e-08	i	i
79	Cc1ccc(C(=O)c2cc3c(cc2N)OCCO3)cc1	-2.0%	-4%	/	/	/
80	O=C(Nc1cc(Cl)ccc1O)c1cc2n(n1)C(C(F)(F)F)CC(c1ccc3c(c1)OCO3)N2 (stereo not drawn)	-0.9%	-21%	1e-09	i	i
